VDR inh: Inhibitors of the vitamin D receptor (VDR): qHTS; Vitamin D3 receptor (Homo sapiens), P11473; VDR-SRC2-3 peptide fluorescence polarization, 2 h; Potency, µM, for the others: max response, negative = inhibition, usual class: inhibitors; 400,000 compounds, 0.93% hits; active means well fitted inhibition curve with a large enough effect; inconclusive means small, poorly fitted or top-dose-only effect, or another doubt; inactive means no such curve, though single readings can be large or run the other way; further: series mostly up to about 120 µM
Target sequence (P11473 whole entry, looked up): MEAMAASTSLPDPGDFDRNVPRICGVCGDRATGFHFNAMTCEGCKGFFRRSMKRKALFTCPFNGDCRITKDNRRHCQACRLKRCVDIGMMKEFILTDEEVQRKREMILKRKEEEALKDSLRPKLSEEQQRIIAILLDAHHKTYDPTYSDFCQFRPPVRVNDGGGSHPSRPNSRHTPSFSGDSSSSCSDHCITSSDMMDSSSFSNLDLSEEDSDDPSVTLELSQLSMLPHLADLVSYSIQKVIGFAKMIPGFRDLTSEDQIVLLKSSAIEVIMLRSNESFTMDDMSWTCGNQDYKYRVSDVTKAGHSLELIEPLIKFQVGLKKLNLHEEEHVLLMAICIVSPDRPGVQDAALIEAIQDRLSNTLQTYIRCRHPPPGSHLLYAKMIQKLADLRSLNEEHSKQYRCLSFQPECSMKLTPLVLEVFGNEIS
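The screen uses fluorescence polarization to detect compounds that interfere with recruitment of the SRC2-3 coactivator peptide to VDR; plates are read after 2 h at room temperature.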
Numbers without * were called inactive; ? = inconclusive; & = joins results of further samples; [ ] = remark or other dose. On the % scale 0 is the no-effect control and ±100 the full control effect; potency means the concentration at half of the fitted maximal effect. This is a subset. The share of hits here may be higher or lower than overall.

VDR inh | mol
-6% | NC(=O)C(c1ccccc1)c1ncc(C(F)(F)F)cc1Cl (stereo not drawn)
-29% | CC(C)CCOc1ccc(C(=O)Nc2sc3c(c2C#N)CCCCC3)cc1
12% | O=C(c1cccc(-n2cnnn2)c1)N1CC=C(c2ccccc2)CC1
-10% | COC(=O)c1ccccc1Nc1ccccc1
13% | O=C(CSc1nc(=O)n(Cc2ccccn2)c2c1CCC2)Nc1cccc(Cl)c1
30% | Cc1cccc(NC(=O)C(=O)c2cc(C)n(-c3ccccc3)c2C)c1C
0% | CC(C)c1nn2c(=O)cc(COC(=O)c3cccc(NC(=O)CCc4ccccc4)c3)nc2s1
5%&0% | COc1ccc(NC(=O)CN2C(=O)COc3ccc(S(=O)(=O)N4CCCCCC4)cc32)cc1

Carrying on:
VDR inh | mol
12% | CCc1ccc(-c2cc3c(=O)n(CC(=O)NCCCN4CCN(CC)CC4)nc(C)n3n2)cc1
-15% | CCN(CC)C(=O)c1[nH]cnc1C(=O)N[C@@H](C)C(=O)OCc1ccccc1
15% | Cc1ccc(NC(=O)CN2CCN(C3CCCCC3)C(=O)C2=O)cc1C
-22% | CCC(C)[C@H](NC(=O)C1CCN(C(=O)[C@H](Cc2ccccc2)NC(=O)OC(C)(C)C)CC1)C(=O)O (stereo partly drawn)
5% | CCOC(=O)c1c(C)[nH]c(N=Nc2ccccc2)c1C
14% | COc1ccc(NC(=O)c2cccc(N3C(=O)C4CCC(C)CC4C3=O)c2)c(OC)c1 (stereo not drawn)
1% | O=[N+]([O-])c1cccc(NC(=S)N2CCN(S(=O)(=O)c3ccccc3)CC2)c1
4% | Cc1ccccc1-c1nn(-c2ccc(F)cc2F)cc1CNCCCN(C)C

The listing continues:
VDR inh | mol
? | CCN(CC)c1ccc(N=Cc2cc(Br)ccc2O)cc1
6% | O=C(CN1C(=O)NC2(CCCC2)C1=O)Nc1ccc(F)cc1
-15% | Cc1ccc2nc(Nc3ccccc3)c(C=O)c(=O)n2c1
-9% | Nn1c(SCC(=O)Nc2ccc(S(=O)(=O)N3CCCC3)cc2)nnc1C(F)(F)F
-1% | c1ccc(-n2cnc3ccccc32)nc1
? | CC(/C=C/c1ccc(C)o1)=C\C(=O)O
5% | CCCc1nnc(NC(=O)CCC(=O)N2CCN(S(=O)(=O)c3ccc(F)cc3)CC2)s1
-12% | CCn1cc(CN2CCC(n3nccc3NC(=O)c3cccc(F)c3)CC2)cn1

The list goes on:
VDR inh | mol
10% | COc1ccccc1NC(=O)c1ccc(-c2ccccc2F)o1
1% | COc1ccc(C)cc1NC(=O)C1CCN(C(=O)c2ccc(C(C)(C)C)cc2)CC1
0% | CCOc1ccc(NC(=O)NCc2ccc3c(c2)CCN3C(C)=O)cc1
5% | Cc1ccc(C(=O)OCC(=O)Nc2ccccc2)cc1NC(=O)c1ccco1
9% | NC(=O)C1CCN(S(=O)(=O)c2cc3c(cc2Cl)NC(=O)CO3)CC1
11% | COc1cc(SC)ccc1C(=O)N1CCN(c2ccc(O)cc2)CC1
17% | COc1ccc(CNC(=O)COC(=O)c2n[nH]c3ccccc23)cc1OC
0% | CCOC(=O)C1CCN(C(=O)COC(=O)C23CC4CC(CC(C4)C2)C3)CC1

Structural class: the compounds so far containing an aryl thioether with sulfur outside any ring
VDR inh | mol
13% | O=C(CSc1nc(=O)n(Cc2ccccn2)c2c1CCC2)Nc1cccc(Cl)c1
-9% | Nn1c(SCC(=O)Nc2ccc(S(=O)(=O)N3CCCC3)cc2)nnc1C(F)(F)F
11% | COc1cc(SC)ccc1C(=O)N1CCN(c2ccc(O)cc2)CC1

The list goes on:
VDR inh | mol
-19% | Cc1nn(CC(=O)N/N=C/c2cccs2)c(C)c1[N+](=O)[O-]
-14% | COCCNC(=O)Nc1ccc2nc(C)sc2c1
-8% | COC(=O)c1ccc2ccn(CC(=O)NC(C)C)c2c1
10% | COc1ccc(-c2nnc(SCC(=O)Oc3cccc(C)c3C)o2)cc1
4% | Cc1cc(NC(=O)c2cc(-c3ccc(Br)cc3)on2)no1
-2% | N/C(=N\c1nc2ccccc2o1)NC(=O)c1ccccc1F
-2% | Cc1ccc(OCCCC(=O)NC2CCCCC2)cc1
8% | COc1ccc(CNC(=O)COC(=O)c2ccc(S(=O)(=O)N3CCOCC3)cc2)cc1

Later entries:
VDR inh | mol
3%&-8%&-2% | CN(C)c1nc(N(C)C)nc(N(C)C)n1
-13% | O=C(NCCCCCCNC(=O)OCc1ccccc1)OCc1ccccc1
9% | CC/C(=N\OC(=O)c1ccc(OC(C)C)cc1)c1ccc(C)cc1
-6% | COc1cccc(CNC(=O)c2ccc(-c3nc(CS(=O)(=O)c4ccccc4)c(C)o3)cc2)c1
-3% | Oc1cccc2ccc(/C=C/c3ccccc3Cl)nc12
-15% | Cc1ccc(-n2nc(C)cc2NC(=O)c2ccc(C)s2)cc1
3% | CC(C)Cn1c(C(C)NC(=O)Cc2ccccc2)nc2ccccc21 (stereo not drawn)
12% | NC1=NS(=O)(=O)NC1c1ccc(Cl)cc1 (stereo not drawn)

Next part:
VDR inh | mol
4% | Cc1ccc(C)c(N2N=C(C(=O)O)CCC2=O)c1
-15% | COc1ccc(S(=O)(=O)N2CCCC2CNC(=O)C(=O)NCc2cccs2)cc1 (stereo not drawn)
-13% | COc1cc([C@@H]2c3cc4c(cc3[C@@H](O[C@@H]3O[C@@H]5CO[C@@H](C)O[C@H]5[C@H](O)[C@H]3O)[C@H]3COC(=O)[C@H]23)OCO4)cc(OC)c1O
-17% | CC(C)Oc1ccc(C(=O)NN2C(=O)NC3(CCCCC3)C2=O)cc1
-7% | Cn1ncc([N+](=O)[O-])c1C(=O)Nc1nc2ccccc2n1CCN1CCCCC1
10% | O=C(Nc1nc2ccc(Cl)cc2s1)c1ccc(S(=O)(=O)N2CCCC2)cc1
-17% | CC1(C)CC(=O)C=C(Nc2ccc(OCC(F)(F)C(F)F)cc2)C1
-10% | CCC1CCCCN1C(=O)COC(=O)c1cc2ccccc2cc1O (stereo not drawn)

Additional results:
VDR inh | mol
? | O=C(O)CC1SC(=O)N(CC(=O)c2ccccc2)C1=O (stereo not drawn)
4% | CCc1ccccc1NC(=O)c1cnc2sc(N3CCOCC3)nn2c1=O
7% | O=C(CSc1nc2c(c(=O)[nH]1)CN(Cc1ccc3c(c1)OCO3)CC2)Nc1ccccc1Cl
-6% | CCOC(=O)C1=C(O)C(=O)NC(c2ccccc2)=C(OCC)C1
-1% | CC(=O)Nc1ccc(NC(=O)c2nc(-c3ccccc3)oc2C)cc1
11% | O=C(Cc1cccc(NC(=O)C2CCCN(C(=O)CCc3ccccc3)C2)c1)Nc1ccc(C(=O)N2CCOCC2)cc1 (stereo not drawn)
27% | COc1ccc(OC)c(/C=C/C(=O)N2CCCc3ccccc32)c1
5% | COc1ccc(CNC(=O)C2CCN(S(=O)(=O)c3ccccc3)CC2)cc1

(more compounds)
VDR inh | mol
-6% | CCOc1cc2[nH]c(=S)n(CCN3CCCCC3C)c(=O)c2cc1OCC (stereo not drawn)
-4% | Cc1cnc(C(=O)OCC(=O)c2c[nH]c3ccccc23)cn1
-5% | Cc1ccc(C)c(OCc2cc(C(=O)N3C[C@@H](C)O[C@@H](C)C3)no2)c1
11% | CCc1cccc(NC(=O)Cn2nc(-c3ccc(OC)cc3)ccc2=O)c1
3% | COc1ccc(N2CCN(C3CCCN(Cc4cccc(C)c4)C3)CC2)cc1 (stereo not drawn)
19% | CCOc1ccccc1C(=O)N[C@H](C(=O)NCc1ccccc1)C(C)C
12% | Cc1ccccc1-c1nc(CN2CCC(C(=O)NCCCN3CC(C)CC(C)C3)CC2)c(C)o1 (stereo not drawn)
4% | Cn1c(C(=O)NCc2ccccc2)cc2oc3ccccc3c21

Next compounds
VDR inh | mol
1% | CCOC1=CC(=O)N(Cc2ccccc2)C1
6% | O=C(COC(=O)c1cc[n+]([O-])cc1)Nc1ccc([N+](=O)[O-])cc1Cl
4% | COc1ccc([C@H]2CC(=O)C=C(c3ccc(OC)cc3OC)C2)cc1
-16% | COC(=O)C1=C(C)N=C2SCCC(=O)N2C1c1cc(Br)ccc1OC (stereo not drawn)
11% | COc1ccc(CCNC(=O)COc2ccc(S(=O)(=O)NC3CCCCC3)cc2Cl)cc1
16µM* | Cc1ccc(S(=O)(=O)CCC(=O)c2cccc([N+](=O)[O-])c2)cc1
14% | Cc1cccc(C(=O)Nc2ccc(-c3nc4ncccc4o3)cc2C)c1
36%[activator] | CCN(CC(=O)NCc1ccc(Cl)cc1)C(=O)CCc1ccccc1O

Remaining list, next part.
VDR inh | mol
5% | Cc1ccc(-c2noc(CCC(=O)Nc3ccccc3C)n2)cc1
-3% | c1ccc(COc2ccccc2CNc2nn[nH]n2)cc1
9% | Cn1ccc2c(OCC(=O)NCc3ccc(F)cc3)cccc2c1=O
-8% | COc1ccc(C2(CNC(=O)c3cc([N+](=O)[O-])cc([N+](=O)[O-])c3)CCCC2)cc1OC
2% | Cc1ccc(C(=O)CCC(=O)Nc2cccc(C)c2)cc1
9% | CCN(C(=O)Cn1cnc2onc(-c3ccc(F)cc3)c2c1=O)c1cc(C)ccc1C
9% | Cc1c(CN2CCC(C(=O)Nc3ccc(Oc4ccccc4)nc3)CC2)cnn1C
3% | CCOc1ccc(N/C=C/C(=O)c2ccc(OC)cc2)cc1

Of the compounds above, 2 contain a CF3 group.
VDR inh | mol
-6% | NC(=O)C(c1ccccc1)c1ncc(C(F)(F)F)cc1Cl (stereo not drawn)
-9% | Nn1c(SCC(=O)Nc2ccc(S(=O)(=O)N3CCCC3)cc2)nnc1C(F)(F)F

Carrying on:
VDR inh | mol
-5% | Cc1cc(C)n(S(=O)(=O)Cc2ccccc2)n1
10% | Cc1ccc2c(c1)C1CN(C)CCC1N2S(=O)(=O)c1ccccc1F (stereo not drawn)
-18% | CCN(CC)S(=O)(=O)c1ccc(N2CCN(S(=O)(=O)c3ccccc3C#N)CC2)nc1
16% | CCC(=O)N1CCc2cc(S(=O)(=O)NC(Cc3ccccc3)C(=O)NC3CCCCC3C)ccc21 (stereo not drawn)
-22% | COCCCNC(=O)c1ccc(CSCc2ccc(C)cc2)o1
-7% | Cc1ccc(NC(=O)OCCNC(=O)c2ccncc2)cc1
-12% | O=C(Cn1c(=O)n(-c2ccc(F)cc2)c(=O)c2sccc21)c1ccccc1
24% | CCOC(=O)C1(C)NC(c2ccco2)C2C(=O)N(C)C(=O)C21 (stereo not drawn)

Carrying on.
VDR inh | mol
7% | Cc1c(C(=O)Nc2nccs2)oc2c(Cl)cccc12
-8% | Cc1cnc(C(=O)N2CCCC(C(=O)c3ccc(C(C)(C)C)cc3)C2)cn1 (stereo not drawn)
0% | CCOc1cc(C(=O)OCC(=O)Nc2ccc(Cl)cn2)ccc1OCC(=O)N1CCOCC1
6% | COc1ccc(NC(=S)N2CCN(C/C=C/c3ccccc3)CC2)c(OC)c1
-11% | O=C(Nc1cccnc1)c1ccc2snnc2c1
8% | Cc1cccc(C(=O)N[C@H](C(=O)Nc2ccc3c(c2)OCO3)C(C)C)c1
2% | O=C(CCN1CCC(c2ccc(Cl)s2)=N1)c1ccc(Cl)s1
-18% | O=C(CCNC(=O)c1ccccc1)NCCc1ccc(Cl)cc1

(listing goes on)
VDR inh | mol
-2% | CCc1cc(-c2n[nH]c(=S)n2-c2ccccc2C)cs1
-25% | CC(=O)N1CCc2c(sc(NC(=O)CN3C(=O)c4ccccc4C3=O)c2C(N)=O)C1
-2% | CCCc1cc(=O)n2[nH]c(NC(=O)c3ccco3)nc2n1
-1% | COc1ccc(Cc2nnc(NC(=O)C(C)(C)C)s2)cc1
-13% | O=C(CCc1ccccc1)Nc1nccs1
-23% | CC(=O)Nc1sc2c(c1C(c1ccccc1Cl)N1CCN(CCO)CC1)CCCC2 (stereo not drawn)
8% | O=C1c2cc(O)c(O)cc2OC(c2ccc(O)c(O)c2)C1O (stereo not drawn)
-14% | Cc1ccccc1S(=O)(=O)/N=C(/c1ccccc1)N(C)C

(list continues)
VDR inh | mol
2% | O=C(CSc1nc2c(cnn2-c2ccccc2)c(=O)[nH]1)NCC1CCCO1 (stereo not drawn)
-15% | Cn1c(Cn2c(=O)sc3ccccc32)nnc1SCC(=O)N1CCOCC1
5% | CN1C(=O)N2CN(C3CCCCC3)CN3C(=O)N(C)C1C23 (stereo not drawn)
-18% | CCN(CC)S(=O)(=O)c1ccc(C(=O)Nc2cc(S(=O)(=O)N3CCOCC3)ccc2O)cc1
-3% | CC(NC1CCN(Cc2ccccc2)CC1)c1ccc(F)cc1 (stereo not drawn)
-4% | COc1ccc(S(=O)(=O)N2CCOC2CNC(=O)C(=O)NCC(C)C)cc1OC (stereo not drawn)
1% | CCOC(=O)c1ccc(S(=O)(=O)N2CCN(CC(O)COc3cccc(C(C)=O)c3)CC2)cc1 (stereo not drawn)
-1% | Nc1ncnc2c1C1(CCCCC1)Cc1ccccc1-2
9% | C=CCn1c(SCCC(=O)O)nc2c1c(=O)n(C)c(=O)n2C
-3% | CCOC(=O)c1c(-c2cccs2)csc1NC(=O)CN1CCOCC1
3% | COc1ccc(C(=O)NCC(c2ccco2)S(=O)(=O)c2cccs2)cc1 (stereo not drawn)

Seven compounds out of the list, arranged by formula weight, descending:
VDR inh | mol
-18% | CCN(CC)S(=O)(=O)c1ccc(C(=O)Nc2cc(S(=O)(=O)N3CCOCC3)ccc2O)cc1
1% | CCOC(=O)c1ccc(S(=O)(=O)N2CCN(CC(O)COc3cccc(C(C)=O)c3)CC2)cc1 (stereo not drawn)
-4% | COc1ccc(S(=O)(=O)N2CCOC2CNC(=O)C(=O)NCC(C)C)cc1OC (stereo not drawn)
3% | COc1ccc(C(=O)NCC(c2ccco2)S(=O)(=O)c2cccs2)cc1 (stereo not drawn)
2% | O=C(CSc1nc2c(cnn2-c2ccccc2)c(=O)[nH]1)NCC1CCCO1 (stereo not drawn)
-3% | CCOC(=O)c1c(-c2cccs2)csc1NC(=O)CN1CCOCC1
9% | C=CCn1c(SCCC(=O)O)nc2c1c(=O)n(C)c(=O)n2C

Bioassay records: PubChem BioAssay, National Center for Advancing Translational Sciences (NCATS)
